# Beta apoptosis: beta cell apoptosis inhibition; INS-1E cytokine-induced death, ATP luminescence, 48 h; percent of positive-control rescue, neutral wells zero; protection from apoptosis, % (no concentration beside the values); 0.8% of 300,000 active;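 active = all replicates at 75% or more, or half of them and the mean; inconclusive = half reach 75% but not the mean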;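 note: 0% = cytokine-treated negative control wells and 100% = positive control rescue; higher means more ATP so stronger rescue from cytokine killing; wells of about 40 µL received 100 nL stock; the first replicate is given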
# T cruzi repl: T. cruzi replication inhibition; AID 1885; 1.4% of 300,000 active; inhibition, % (concentration not given with the values); T. cruzi beta-gal in NIH3T3, luminescence, 90 h;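 active = mean inhibition across valid replicates above about 55%, limit read from the data; inconclusive = mean below that limit but half or more replicates reach it; inactive = mean below it, under half of replicates reach it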;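 note: signal also drops with host cell toxicity which is not excluded here; 0% = plate median of DMSO wells and 100% = zero luminescence signal; higher percent means less beta-gal luminescence so fewer parasites; stock transfer was 50 nL into about 50 µL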
# RanGTP-Impb inh: disruptors of Ran-importin-beta complex formation – biochemical, FRET, CFP-Ran, YFP-importin-beta, homogeneous, primary screen. 1.1% of 300,000 active. cell-free CFP-Ran/YFP-importin-beta FRET ratio. inhibition, % (concentration not given with the values);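 active = most replicates above 15%; inconclusive = exactly half above 15%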;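 note: 0% = DMSO wells and 100% = Ran loaded with GDP instead of GTP; wells of about 40 µL received 100 nL stock; the first replicate is given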
# LANA-H2B inh: blocks KSHV LANA binding to histone H2A/H2B; Q9QR71; cell-free LANA-H2A/H2B peptide, fluorescence polarization; inhibition, % (test concentration not listed); 0.6% of 320,000 active; AID 2629; in the data active = inhibition mostly above about 10%, no sharp cut-off; inactive = mostly below about 6.7%;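 note: stock transfer was 7.5 nL into about 10 µL; 0% = median of vehicle wells and 100% = median of positive control wells; one replicate is shown; the record names a cut of 25% in any replicate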
# Target sequence (Q9QR71 whole entry, looked up): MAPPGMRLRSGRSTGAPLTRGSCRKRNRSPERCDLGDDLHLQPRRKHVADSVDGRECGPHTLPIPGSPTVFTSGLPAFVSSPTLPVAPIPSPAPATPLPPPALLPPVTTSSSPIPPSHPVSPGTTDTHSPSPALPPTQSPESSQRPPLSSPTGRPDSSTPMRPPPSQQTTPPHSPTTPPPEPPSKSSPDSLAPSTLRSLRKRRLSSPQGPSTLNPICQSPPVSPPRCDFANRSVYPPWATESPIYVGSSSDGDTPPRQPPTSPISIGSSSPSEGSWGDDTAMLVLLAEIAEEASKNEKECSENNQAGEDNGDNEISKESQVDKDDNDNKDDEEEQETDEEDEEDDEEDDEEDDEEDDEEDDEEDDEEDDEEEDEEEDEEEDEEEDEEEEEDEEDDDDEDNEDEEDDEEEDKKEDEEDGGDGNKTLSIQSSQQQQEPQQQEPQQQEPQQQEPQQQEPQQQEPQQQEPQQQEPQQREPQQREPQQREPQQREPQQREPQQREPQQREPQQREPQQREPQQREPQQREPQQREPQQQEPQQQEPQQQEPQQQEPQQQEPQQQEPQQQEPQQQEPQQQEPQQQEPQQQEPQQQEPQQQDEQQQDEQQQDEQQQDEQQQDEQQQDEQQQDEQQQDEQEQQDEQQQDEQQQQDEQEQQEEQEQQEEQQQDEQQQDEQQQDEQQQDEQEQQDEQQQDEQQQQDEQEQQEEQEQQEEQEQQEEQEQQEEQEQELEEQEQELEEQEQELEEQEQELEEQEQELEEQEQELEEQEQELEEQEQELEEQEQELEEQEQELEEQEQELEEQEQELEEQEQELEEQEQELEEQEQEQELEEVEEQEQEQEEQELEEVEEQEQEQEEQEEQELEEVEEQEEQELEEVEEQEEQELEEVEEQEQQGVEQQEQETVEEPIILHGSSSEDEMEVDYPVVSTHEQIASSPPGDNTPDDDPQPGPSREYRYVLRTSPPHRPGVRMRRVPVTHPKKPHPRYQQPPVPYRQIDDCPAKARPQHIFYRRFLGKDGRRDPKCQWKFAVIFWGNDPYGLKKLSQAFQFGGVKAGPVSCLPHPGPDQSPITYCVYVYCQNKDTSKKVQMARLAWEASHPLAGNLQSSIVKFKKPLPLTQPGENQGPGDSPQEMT
# Vif A3G: HIV-1 Vif–A3G interaction blockers – biochemical, TR-FRET, GST-Vif 1-94, biotin-A3G peptide, dose response retest, primary screen (AID 1117319); inhibition, %; hits with a dose series show IC50 in µM; TR-FRET GST-Vif / biotin-A3G peptide binding; higher % means a stronger effect; test concentration not given here; strong numbers were not always called active; 0.57% of 260,000 active;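 active = above the screen mean plus three standard deviations and confirmed in dose response; inconclusive = results disagree or hit not tested in dose response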;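 note: Vif residues 1-94 fused to GST binding biotinylated APOBEC3G peptide 110-148; 0% = full assay without inhibitor and 100% = GST in place of GST-Vif; retest series ran down from 100 µM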
# Calb FLC: affects C. albicans growth with fluconazole; C. albicans CaCi-2 (fluconazole-resistant clinical isolate) + fluconazole, Alamar Blue growth, 48 h; growth inhibition, % (concentration not given with the values); 0.57% of 300,000 active;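 active = most replicates above 75%; inconclusive = exactly half above 75%; inactive = most below 75%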;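 note: all wells also contain fluconazole at 8 µg/ml as a sub-toxic cotreatment; 0% = median of DMSO wells and 100% = median of geldanamycin control wells; wells of about 8 µL received 7.5 nL stock; the first replicate is given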
# MLL AF4-AF9 inh: MLL-AF4/AF9 protein interaction inhibition. AlphaScreen, biotin-AF4 peptide binding to FLAG-AF9. P42568. AID 651704. inhibition, % at 10 µM. 0.47% of 350,000 active;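 active = every replicate reaching a set inhibition limit, whatever the replicate mean, cut at about 25% in these data; inconclusive = mean inhibition reaches that limit but some replicates miss it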;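 note: 0% = plate neutral control median and 100% = total signal loss; the record names both 10 and 1 µM as test concentration; the first replicate is given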
# Bfl-1 A1 inh: inhibitors of the anti-apoptotic protein A1, read as caspase activation. MEF A1-2A-BIM cells, Caspase-Glo 3/7 luminescence, 3 h; percent of clofoctol response, vehicle zero. caspase activation, % (concentration not given with the values). 0.066% of 330,000 active;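 active = over half of replicate activation scores above 10%, or exactly half above 10 with the replicate mean above 10; inconclusive = replicate mean below 10 yet half the replicates above 10; inactive = over half of replicates below 10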;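 note: wells of about 30 µL received 50 nL stock; many hits fall short of the cut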
# Numbers without * were called inactive; ? = inconclusive; / = not tested or not shown; & = joins results of further samples.
SMILES,Beta apoptosis,T cruzi repl,RanGTP-Impb inh,LANA-H2B inh,Vif A3G,Calb FLC,MLL AF4-AF9 inh,Bfl-1 A1 inh
C[C@@H]1CN([C@@H](C)CO)C(=O)c2cc(C#CC3(O)CCCC3)cnc2O[C@H]1CN(C)Cc1ccncc1,/,/,/,/,/,/,-2.4,/
CCN(CC)CCNC(=O)c1cc(S(C)(=O)=O)ccc1OC,/,/,/,-11.7,/,/,-4.9,/
COc1ccc(NCC(=O)N/N=C2\CCCC(C)C2)cc1 (centres undefined),/,-10.2,/,/,/,-9.4,2.1,/
Cc1cc(Cl)ccc1NC(=S)Nc1ccccn1,/,-27.1,/,/,/,-47.3,0.5,/
C(#Cc1ccccc1)C[N+]1(CC#Cc2cccc3ccccc23)CCOCC1,/,/,-5.8,/,/,30.7,9.7,/
CN(C)CCOC(=O)COc1ccc(Cl)cc1,/,/,/,4.5,/,/,-1.6,0.6
ClCc1c2ccccc2cc2ccccc12,/,/,/,-0.9,/,/,1.9,-2.2
CC1(C)S[C@@H]2[C@H](NC(=O)[C@H](N)c3ccccc3)C(=O)N2[C@H]1C(=O)OC1OC(=O)c2ccccc21 (some centres undefined),/,/,/,0.5,/,/,1.9,-0.4
CO[C@@]12[C@H](COC(N)=O)C3=C(C(=O)C(C)=C(N)C3=O)N1C[C@@H]1N[C@@H]12,/,/,/,-5.9,/,/,-2.6,-0.6
O=C(O)c1cc(=O)c2ccccc2[nH]1,/,/,/,5.2,/,/,1.2,1.1
O=C1c2c(O)cccc2Cc2cccc(O)c21,/,/,/,3.2,/,/,4.7,-0.1
CCN1CCCC(OC(=O)C(c2ccccc2)c2ccccc2)C1 (centres undefined),/,/,/,-6.0,/,/,8.3,-0.3
COc1ccc(S(=O)(=O)Cc2ccc(C(=O)N3CCN(c4ncccn4)CC3)o2)cc1,/,/,/,3.7,/,/,-4.0,1.0
CC(C)NC(=O)N(C)C[C@H]1Oc2ccc(NC(=O)Cc3ccccc3)cc2C(=O)N([C@H](C)CO)C[C@@H]1C,0.4,/,/,/,/,/,-2.0&-7.6,-0.3
CC(C)(C)OC(=O)C[C@@H]1C/C=C\C[C@@H](CC(=O)N[C@@H](CO)Cc2ccccc2)C(=O)NCCOC1=O,-4.4,/,/,/,/,/,1.1,-0.3
COC(=O)c1ccc(CCc2cc(O)ccc2O)cc1,/,/,/,/,-2.5%,/,/,/
COc1ccc(CS(=O)/C(Cl)=C(/Cl)C(=O)Nc2ccc(OC)nc2)cc1 (centres undefined),/,/,/,/,9.3%,/,/,/
COc1cc(C(=O)Nc2cccc(-c3nc4cc(C)cc(C)c4o3)c2)cc(OC)c1OC,/,/,/,/,-4.5%&-6.0%,/,/,/
O=C(c1cccc(Cl)c1)N1CCN(Cc2ccncc2)CC1,/,/,/,/,?,/,/,/
CC(C)(C)NC(=O)C[C@H]1C[C@H](C(=O)N2CCOCC2)[C@@]2(CCC3CCCC3)c3[nH]c4ccc(Cl)cc4c3CCN2C1=O,/,/,/,/,-5.2%,/,/,/
C=CCOc1ccc(C[C@H](N)C(=O)NC[C@H]2O[C@@H](n3cnc4c(N)ncnc43)[C@H](O)[C@@H]2O)cc1,/,/,/,/,-6.0%,/,/,/
Cc1ccc(C2C(C#N)=C(N)SC(N)=C2C#N)cc1,/,/,/,/,0.1%,/,/,/
CCOc1ccc(-c2nnc3sc(-c4ccccc4OC)nn23)cc1,/,/,/,/,-16.5%,/,/,/
Cc1ccc(C)c(NC(=O)COC(=O)c2cc(=O)c3ccccc3o2)c1,/,/,/,/,-7.2%,/,/,/
NC(=O)c1c(NC(=O)c2ccccc2F)sc2c1CCC2,/,/,/,/,-15.4%,/,/,/
CCOC(=O)C1CCN(C(=O)C2CCN(S(=O)(=O)c3cccc4cccnc34)CC2)CC1,/,/,/,/,0.9%,/,/,/
CC1=NN(c2ccc([N+](=O)[O-])cc2)C(=O)C1,/,/,/,/,-2.1%,/,/,/
CC(C)CCNC(=O)NC(=O)Cn1cc(C(F)(F)F)ccc1=O,/,/,/,/,-2.0%,/,/,/
O=C(NCc1ccco1)c1c[nH]c2ccc(S(=O)(=O)N3CCOCC3)cc2c1=O,/,/,/,/,7.5%,/,/,/
CC(C)[C@@H]1CN=C(N)N1C[C@@H]1CCCN1C[C@H](C)N1C[C@@H](Cc2ccccc2)N(CCc2ccc(Cl)c(Cl)c2)C1=N,/,/,/,/,3.8%,/,/,/
Cc1cnc(C(=O)N(CC(C)C)c2c(N)n(CC(C)C)c(=O)[nH]c2=O)cn1,/,/,/,/,-0.9%,/,/,/
CC1(C)Cc2c(sc3c4nnnn4c4nnnn4c23)CO1,/,/,/,/,3.8%,/,/,/
CCN(CC)C(C)C#CCC(c1ccccc1)c1ccccc1 (centres undefined),/,/,/,/,20.1%,/,/,/
O=C(OCc1cc(Cl)ccc1OC(F)F)c1cc(S(=O)(=O)O)ccc1O,/,/,/,/,-5.8%,/,/,/
Nc1nnc(CCCCc2cccs2)o1,/,/,/,/,17.3%,/,/,/
Cc1c(C(=O)NCCCN2CCOCC2)sc2ncnc(N3CCN(c4ccccc4)CC3)c12,/,/,/,/,0.3%,/,/,/
COc1ccc(NC(=O)COC(=O)c2ccc(S(=O)(=O)N(C)c3ccccc3OC)cc2)c(OC)c1,/,/,/,/,28.8%,/,/,/
Cc1ccc(NC(=O)C(c2ccc(Cl)cc2)N2CCCCC2)cc1 (centres undefined),/,/,/,/,-7.7%,/,/,/
O=C(Nc1nc(-c2cccs2)cs1)c1cc2ccccc2oc1=O,/,/,/,/,-3.9%,/,/,/
COc1ccc(N2CCN(C(=O)CSc3ncnc4c3cnn4-c3ccc(OC)cc3)CC2)cc1,/,/,/,/,3.5%,/,/,/
O=[N+]([O-])c1ccc(Cl)c(/C=N/N2CCN(C3c4ccccc4-c4ccccc43)CC2)c1,/,/,/,/,31.9%,/,/,/
COc1ccccc1N/C(=N/c1nc(C)cc(C)n1)NC(C)=O,/,/,/,/,0.0%,/,/,/
CCc1ccc(Nc2nnc(SCC(=O)c3ccc4c(c3)NC(=O)CO4)s2)cc1,/,/,/,/,12.6%,/,/,/
C/C(CCC(=O)OC[C@H]1O[C@H](C#Cc2ccccc2)C=C[C@@H]1Oc1ccc(C)cc1)=N\O[C@@H](C)CN1CCCCc2nc(C)c(C)cc21,/,/,/,/,?,/,/,/
COc1ccc(-n2nc(C(=O)NCC(=O)NCc3ccc(F)cc3)c3ccccc3c2=O)c(OC)c1,/,/,/,/,-10.5%,/,/,/
C=CCn1cnc2c(c1=O)c1nc3ccccc3nc1n2/N=C/c1ccccn1,/,/,/,/,3.3%,/,/,/
CC(C)CNC(=O)C1(N2C(=O)c3ccccc3C2=O)CCCC1,/,/,/,/,-2.4%,/,/,/
COc1ccc(F)cc1CN1CCN(c2cc(C)nc3c4c(C)cc(C)nc4nn23)CC1,/,/,/,/,-5.1%,/,/,/
CCOC(=O)c1c(-c2cccs2)csc1NC(=O)CNCCN1CCOCC1,/,/,/,/,?,/,/,/
Cc1nn(-c2ccccc2)c(Cl)c1/C=N/NC(=O)C1COc2ccccc2O1 (centres undefined),/,/,/,/,1.7%,/,/,/
CCOC(=O)c1oc2nc(C(C)C)c3c(c2c1N)CC(C)(C)OC3,/,/,/,/,-8.4%,/,/,/
COc1c(C)cccc1C(=O)NC(=S)Nc1ccc2c(c1)Cc1ccccc1-2,/,/,/,/,3.4%,/,/,/
O=c1oc2c(CN3CCOCC3)c(O)c(Cl)cc2c2c1CCC2,/,/,/,/,8.3%,/,/,/
C[C@@H]1NC(=O)[C@H](CCCN=C(N)N)NC(=O)c2cc([N+](=O)[O-])cc(I)c2OCC[C@@H](C(N)=O)NC1=O,/,/,/,/,-3.9%,/,/,/
Cc1ccccc1OCC(=O)NCC(=O)N/N=C/C=C/c1ccccc1,/,/,/,/,-0.9%,/,/,/
COc1cc(OC)c2c(-c3cccc(-c4ccc(CO)cc4)c3)cc(=O)oc2c1,/,/,/,/,-3.5%,/,/,/
COC(=O)c1[nH]c2cccc(OC)c2c1NC(=O)CCN1CCN(c2cccc(Cl)c2)CC1,/,/,/,/,-11.8%,/,/,/
COC(=O)c1nn(-c2ccccc2)c(Sc2ccc(C)cc2)c1/C=N/O,/,/,/,/,13.2%,/,/,/

# An excerpt from above with just Beta apoptosis, MLL AF4-AF9 inh and T cruzi repl.
smiles,Beta apoptosis,MLL AF4-AF9 inh,T cruzi repl
COc1ccc(NCC(=O)N/N=C2\CCCC(C)C2)cc1 (centres undefined),/,2.1,-10.2
Cc1cc(Cl)ccc1NC(=S)Nc1ccccn1,/,0.5,-27.1

# Not a retest: an excerpt of the list.
SMILES,Beta apoptosis,T cruzi repl,RanGTP-Impb inh,LANA-H2B inh,Vif A3G,Calb FLC,MLL AF4-AF9 inh,Bfl-1 A1 inh
C[C@@H]1NC(=O)[C@H](CCCN=C(N)N)NC(=O)c2cc([N+](=O)[O-])cc(I)c2OCC[C@@H](C(N)=O)NC1=O,/,/,/,/,-3.9%,/,/,/
Cc1ccccc1OCC(=O)NCC(=O)N/N=C/C=C/c1ccccc1,/,/,/,/,-0.9%,/,/,/
COc1cc(OC)c2c(-c3cccc(-c4ccc(CO)cc4)c3)cc(=O)oc2c1,/,/,/,/,-3.5%,/,/,/
COC(=O)c1[nH]c2cccc(OC)c2c1NC(=O)CCN1CCN(c2cccc(Cl)c2)CC1,/,/,/,/,-11.8%,/,/,/
COC(=O)c1nn(-c2ccccc2)c(Sc2ccc(C)cc2)c1/C=N/O,/,/,/,/,13.2%,/,/,/

# Complete entries, quoted from the list. Values in the order: Beta apoptosis	T cruzi repl	RanGTP-Impb inh	LANA-H2B inh	Vif A3G	Calb FLC	MLL AF4-AF9 inh	Bfl-1 A1 inh
# `O=C1c2c(O)cccc2Cc2cccc(O)c21` reads /	/	/	3.2	/	/	4.7	-0.1
# `O=c1oc2c(CN3CCOCC3)c(O)c(Cl)cc2c2c1CCC2` reads /	/	/	/	8.3%	/	/	/
# `COC(=O)c1ccc(CCc2cc(O)ccc2O)cc1` reads /	/	/	/	-2.5%	/	/	/

# Screening data as filed in PubChem.

# A portion of the library; the hit share may differ from the screen's.
